Screening results deposited in PubChem by several laboratories.
Rce1 inh = blocks yeast Ras-converting enzyme; calls only; actives 0.27% (n = 290,000); Q03530; yeast membranes, quenched prenylated peptide cleavage fluorescence;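 active = fall in fluorescence gain of 50% or more versus controls, with final raw signal at or below 3038400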;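 note: plate controls were neutral control wells for no effect and wells lacking membranes for full effect; tested at 10 µM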
MT1-MMP act inh = MT1-MMP (human) activation inhibition; P50281; HT1080 RFP-PRO-GFP cells, GFP/RFP ratio fluorescence, overnight; percent of plate control window, DMSO zero; GFP/RFP ratio change, % at 20 µM; actives 0.061% (n = 360,000); AID 651647;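 active = GFP/RFP ratio change of at least 30% with cell ATP level not reduced by more than half and red fluorescence within 50% of control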; note: strong numbers were not always called active
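Compound: 20 µM single dose, 1% DMSO / System: HT1080 RFP-PRO-GFP cells / Controls: DMSO and RFP-L50D-GFP cell wells / Read-out basis: GFP/RFP fluorescence ratio / Schedule: overnight compound exposure at 37 °C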
eIF4H inh = inhibitors of RNA binding by human eIF4H; Q15056; eIF4H fluorescence polarization binding assay; inhibition, % at 35 µM; actives 0.94% (n = 290,000); AID 2012;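 active = 50% or more with normal probe brightness, or confirmed in later tests; about a fifth of its hits are not listed in these tables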;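 note: calls also rest on retests at 20 µM and on dose response follow-up; 0% = protein and probe with vehicle and 100% = probe without protein; strong numbers were not always called active; many hits fall short of the cut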
UUG fidelity = alters start codon recognition fidelity in yeast; actives 0.13% (n = 350,000); activity score, % at 18.7 µM; AID 602363; S. cerevisiae UUG-firefly luciferase reporter, luminescence/redox ratio;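 active = replicate mean at a twofold rise or more, about +100% in these data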;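 note: firefly luciferase made from a UUG start codon reports start codon fidelity; reporter light over untreated wells divided by growth signal over untreated wells; some hits fall short of that in this replicate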
Env fusion inh = blocks HIV Env-driven cell-cell fusion | HeLa-JRFL Env/CEM21 cell fusion, luciferase | actives 1.1% (n = 360,000) | AID 651610 | inhibition, % at 12.3 µM;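 active = mean replicate inhibition score of at least 50 and every replicate individually at or above 50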;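 note: 0% = plate neutral controls and 100% = maraviroc near 300 nM; one replicate is shown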
CSC inhib = blocks cancer stem cells. cancer stem cell-like cells viability, luminescence. actives 1.1% (n = 300,000). AID 2717. inhibition, % at 7.5 µM;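 active = mean at 75% or more and at least half the replicates too; tested in HMLE shEcad cells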;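 note: 0% = median of negative and 100% = median of positive control wells; the first replicate is given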
PABP FP inh = blocks human PABP binding to poly(A) RNA; fluorescence polarization; inhibition, % at 35 µM; actives 1% (n = 290,000); AID 2014;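 active = 50% or more with normal probe brightness, or confirmed in later tests; about a fifth of its hits are not listed in these tables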;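 note: calls also rest on retests at 20 µM and on dose response follow-up; controls were probe without protein and protein plus probe with vehicle; some compounds called inactive have numbers as strong as hits; many hits fall short of the cut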
Target sequence (P11940 whole entry, looked up): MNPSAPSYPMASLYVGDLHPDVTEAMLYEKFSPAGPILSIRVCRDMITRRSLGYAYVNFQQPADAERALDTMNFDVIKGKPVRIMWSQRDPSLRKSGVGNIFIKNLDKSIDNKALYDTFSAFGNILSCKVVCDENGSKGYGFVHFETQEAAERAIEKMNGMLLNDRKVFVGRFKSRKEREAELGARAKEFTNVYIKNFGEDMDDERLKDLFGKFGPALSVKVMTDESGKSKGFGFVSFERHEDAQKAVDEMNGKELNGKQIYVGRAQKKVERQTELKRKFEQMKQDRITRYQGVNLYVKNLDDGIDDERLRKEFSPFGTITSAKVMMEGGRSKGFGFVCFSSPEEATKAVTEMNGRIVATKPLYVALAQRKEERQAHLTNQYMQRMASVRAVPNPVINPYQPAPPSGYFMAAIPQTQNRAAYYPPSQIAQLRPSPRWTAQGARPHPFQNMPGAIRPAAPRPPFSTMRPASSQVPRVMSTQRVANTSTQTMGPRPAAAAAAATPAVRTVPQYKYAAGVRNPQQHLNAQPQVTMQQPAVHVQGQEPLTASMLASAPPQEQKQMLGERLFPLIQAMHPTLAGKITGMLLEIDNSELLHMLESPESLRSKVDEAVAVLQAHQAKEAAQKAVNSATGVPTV
eIF4H inh retest = further read-out of eIF4H inh, marked with its call; inhibition, %; compound at 20 µM; confirmation average;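 mean of two retest wells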
PABP FP inh retest = second read-out of PABP FP inh, no call of its own (marks repeat the call); inhibition, %; compound at 20 µM; confirmation repeats;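 mean of two retest wells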
MT1-MMP act inh RFP = further read-out of MT1-MMP act inh, marked with its call; RFP signal change, %; measured here: RFP expression control read;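 0 = vehicle wells; hits needed this value within 50% of zero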
Starred values were filed as active, the others as inactive; i = inactive; . = no result given; & = joins results of further samples. Only part of the results is shown. The share of hits here may be higher or lower than overall.

SMILES	Rce1 inh	MT1-MMP act inh	MT1-MMP act inh RFP	eIF4H inh	UUG fidelity	Env fusion inh	CSC inhib	PABP FP inh	others
O=c1c2ccccc2sn1-c1cc(S(=O)(=O)N2CCOCC2)ccc1N1CCCC1	i	6	4	11	2	4	17	16
COc1ccc(S(=O)(=O)N2Cc3ccccc3CC2C(=O)Nc2nccs2)cc1 (stereo not drawn)	i	-8	1	-1	-9	-58	10	-14
CN(C)C(=O)c1snnc1-c1ccccc1	i	2	5	-2	-9	.	5	-9
CC(C)COC(=O)c1cccc2c1-c1ccccc1/C2=N\O	i	-7	-3	1	-16	24	120*	2
COc1ccc(-n2c(C)nc3cc(C(=O)N4CCOCC4)ccc32)cc1	i	0	4	-4	-24	.	-2	-12
Cc1cc(NC(=O)CSc2nccn2-c2ccc(F)cc2)no1	i	5	-1	9	-24	.	-7	4
O=C(Cn1nc(C(=O)O)c2ccccc2c1=O)Nc1ccc(Br)cc1	i	-4	-1	-3	-8	15	13	16
COc1ccc(-n2nnnc2SCC(=O)NCc2ccco2)cc1OC	i	-1	1	5	.	.	-2	-6
O=C(COc1ccccc1)Nc1nnc(-c2ccc(Cl)s2)o1	i	5	7	-5	-6	0	0	3
COc1ccc(/C=C2/CCOC2=O)cc1	i	4	7	-6	.	.	-3	-6

Structures above that have an aryl thioether with sulfur outside any ring (2):
SMILES	Rce1 inh	MT1-MMP act inh	MT1-MMP act inh RFP	eIF4H inh	UUG fidelity	Env fusion inh	CSC inhib	PABP FP inh	others
Cc1cc(NC(=O)CSc2nccn2-c2ccc(F)cc2)no1	i	5	-1	9	-24	.	-7	4
COc1ccc(-n2nnnc2SCC(=O)NCc2ccco2)cc1OC	i	-1	1	5	.	.	-2	-6

Back to the main list with the two entries that preceded the break.
SMILES	Rce1 inh	MT1-MMP act inh	MT1-MMP act inh RFP	eIF4H inh	UUG fidelity	Env fusion inh	CSC inhib	PABP FP inh	others
O=C(COc1ccccc1)Nc1nnc(-c2ccc(Cl)s2)o1	i	5	7	-5	-6	0	0	3
COc1ccc(/C=C2/CCOC2=O)cc1	i	4	7	-6	.	.	-3	-6
CC(C)c1cccc(C(C)C)c1NC(=O)c1ccccc1	i	-1	-2	-19	-11	5	13	-15
O=C(NC1CCS(=O)(=O)C1)c1cccnc1 (stereo not drawn)	.	.	.	24	.	.	-7	-4
O=C(c1cccnc1)N(c1cc2sc(=O)oc2c2ccccc12)S(=O)(=O)c1ccccc1	i	0	8	12	.	-10	23	0
CC(C)Cn1c(SCC(=O)N(C)C2CCS(=O)(=O)C2)nc2cc(Cl)ccc2c1=O (stereo not drawn)	i	0	0	.	-17	-13	8	.
CNCCCOc1cccc(Oc2ccccc2)c1	i	-1	3	-1	.	13	34	0
O=S(=O)(N1CCOCC1)N1CCN(c2ccc(F)cc2)CC1	i	7	2	7	-7	.	1	0
CC(NC(=S)Nc1ccccc1C(F)(F)F)C1CC2CCC1C2 (stereo not drawn)	i	-5	-5	-5	.	29	1	10
Cc1cccn2c(=O)c(C=O)c(N3CCC4(CC3)OCCO4)nc12	i	2	-3	-7	-7	-20	-16	-2
COc1ccc(C(=O)/C=C/Nc2c(C)n(C)n(-c3ccccc3)c2=O)c(OC)c1	i	-3	3	-7	.	1	-3	-6
COc1ccc(CCNCC(=O)Nc2ccccc2C(F)(F)F)cc1	i	-1	-3	6	.	-5	-6	13
COc1ccc(N2CCN(C(CNC(=O)C(=O)NCc3ccncc3)c3ccco3)CC2)cc1 (stereo not drawn)	i	3	-5	-8	-12	0	-5	-10
CCOc1ccc2[nH]c(=O)c(CN(CCO)C(=O)c3ccc(OC)c(OC)c3)cc2c1	i	3	1	-6	0	-6	-5	-5
O=C(Nc1nc(-c2ccc(Cl)cc2)cs1)C1CCCO1 (stereo not drawn)	i	3	-9	3	8	-50	13	22
CC1([N+](=O)[O-])COC(c2cccc3ccccc23)OC1 (stereo not drawn)	.	-2	-1	.	-13	-15	.	.
O=C1NCCN(C(=O)CCc2nnc(-c3ccsc3)o2)C1c1ccc(F)cc1 (stereo not drawn)	i	1	-1	-6	.	-7	-12	-5
COc1cccc(C(NC(C)=O)c2nc(-c3cccc(C#N)c3)cs2)c1 (stereo not drawn)	.	2	4	.	-23	2	.	.
COC(=O)C1CN(C(=O)COc2ccc(Cl)cc2C)c2ccccc2O1 (stereo not drawn)	i	0	0	2	-2	-7	-5	9
COc1cc(OC)cc(-c2noc([C@@H]3O[C@H](CO)[C@H](O)[C@H](O)[C@H]3O)n2)c1	.	-1	5	.	-14	22	.	.
CC(C)CC(=O)NC(NC(=O)CC(C)C)c1cccc([N+](=O)[O-])c1	i	2	6	11	1	5	-1	1
COc1ccc(-c2c(C(C)=O)c(C)nc3sc4c(=O)[nH]nnc4c23)cc1	i	-2	-1	-6	.	-8	-28	-3
Cc1ccc(CN2[C@@H]3c4ccccc4C[C@@H]3OCCS2(=O)=O)cc1	i	3	0	2	-8	.	-6	7
Cc1ccccc1CSCC(=O)NC(=O)NCc1ccco1	i	-2	0	55*	9	.	.	45*	eIF4H inh retest=90*;PABP FP inh retest=65*
COc1ccc(/C=C2/C(=O)C(C)(C(C)C)CCC2C)cc1 (stereo not drawn)	i	-4	-6	3	-18	-12	5	-5
COc1cccc(CNC(=O)CCn2c(=O)oc3ccccc32)c1	i	4	3	4	-13	-83	-5	-9
O=C(NC1CCCCC1)N1CCCc2ccccc21	.	-2	-2	4	0	.	.	8
CCN(CC)c1ccc(S(=O)(=O)N2CCCCC2)cc1NC(=O)CN1C(=O)NC2(CCCC2)C1=O	i	1	2	.	-19	.	-8	.
COc1cc(NC(=O)Nc2c(C)n(C)n(-c3ccccc3)c2=O)cc(OC)c1OC	i	-1	2	2	-4	-9	-10	1
CC(C)COc1ccc(-c2nnc(-c3ccncc3)o2)cc1	i	0	-17	-14	-9	-11	-6	0
Oc1ccc(Br)cc1CNc1cccc2cccnc12	i	7	8	30	-17	-28	52	28
Oc1ccc(C[C@@H]2CNCCN2CC2CCCCC2)cc1	i	6	2	.	-26	20	32	.

Next section, starting with the last 3 of the part before.
SMILES	Rce1 inh	MT1-MMP act inh	MT1-MMP act inh RFP	eIF4H inh	UUG fidelity	Env fusion inh	CSC inhib	PABP FP inh	others
CC(C)COc1ccc(-c2nnc(-c3ccncc3)o2)cc1	i	0	-17	-14	-9	-11	-6	0
Oc1ccc(Br)cc1CNc1cccc2cccnc12	i	7	8	30	-17	-28	52	28
Oc1ccc(C[C@@H]2CNCCN2CC2CCCCC2)cc1	i	6	2	.	-26	20	32	.
O=C(C1CCCN(S(=O)(=O)c2ccc(F)cc2)C1)N1CCOCC1 (stereo not drawn)	.	5	7	.	-19	-35	.	.
Cn1c(O)c(C=Nc2ccc(Br)cc2)sc1=O	i	4	1	6	.	-58	-1	-20
COc1ccc(S(=O)(=O)N2CCCCC2)cc1NC(=O)CN(Cc1ccco1)Cc1ccco1	.	-17	-21	.	-10	76*	.	.
CC(C)C12CN3CC(C(C)C)(CN(C1)C3c1ccco1)C2=O (stereo not drawn)	i	1	6	3	-9	-25	.	1
Cc1cc(C)n2nc(-c3ccccc3)c(-c3ccccc3)c2n1	i	-2	-5	-1	-12	-7	7	-10
C=CCNC(=S)N1N=C(c2ccco2)CC1c1ccco1 (stereo not drawn)	.	-1	1	.	7	-2	.	.
COC(=O)C(C)N1CCC(=O)c2ccccc2S1(=O)=O (stereo not drawn)	i	2	7	-12	-20	-20	-13	-9
O=C(O)c1ccc2c(c1)S(=O)(=O)c1ccccc1C2=O	i	3	3	7	-16	.	2	0
CC1(C(=O)NS(=O)(=O)C2CC2)CCCN(C(=O)c2cccc(OC(F)(F)F)c2)C1 (stereo not drawn)	.	5	4	.	-2	-2	.	.
COC(=O)C1=C(C)NC(=O)NC1c1ccc(-c2ccc(F)cc2)o1 (stereo not drawn)	i	-1	-4	13	-4	-36	-6	-5
O=C(O)Cn1c2c(c3ccccc31)CCCC2	i	-10	6	25	.	.	.	58	eIF4H inh retest=14;PABP FP inh retest=30
CN(C)S(=O)(=O)Nc1cccc(Br)c1	i	-3	-3	2&-4	.	9	-12	-16&-1
CC(C)(C)c1nnc(NC(=O)CCS(=O)(=O)c2ccccc2)s1	i	3	-1	-1	-10	-7	0	-4
O=C(NCCCCNC(=O)c1ccc(Br)s1)c1ccc(Br)s1	i	5	3	-11	-15	-34	1	1
O=c1[nH]c2ccc([N+](=O)[O-])cc2nc1/C=C(\O)c1ccccc1	i	-5	-3	-5	.	-1	-10	4
Cn1c(-c2sc3cc(C(F)(F)F)cnc3c2-c2cccs2)n[nH]c1=S	i	3	1	11	.	1	-16	-5
CCOCCCN1C(=O)C(=O)N(CC(=O)N2c3ccccc3NC(=O)CC2C)C1=O (stereo not drawn)	.	4	5	.	-16	-13	-9	.
